Screens (PubChem BioAssay)
HCMV UL50-53 inh: inhibitors of HCMV UL50-UL53 interaction, biochemical, HTRF; HCMV UL50-UL53 nuclear egress complex (human cytomegalovirus); normalized percent inhibition; inhibition, % (test concentration not listed); 0.15% of 190,000 active; AID 1918969, 2023;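 active = both replicates at 50% or more, plus weaker picks with an unusually low signal ratio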;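 note: stock transfer was 100 nL into about 20 µL; 0% = negative control wells and 100% = wells with untagged competitor protein; inactives centre near -12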
GIV-Gai inh: inhibitors of GIV peptide binding to Galpha-i3, primary screen, biochemical, fluorescence polarization, FITC-GIV GBA peptide, rat Galphai3; 90 min; active compounds read low; scaled: aluminum fluoride 0%, vehicle 100%; 0.42% of 210,000 active; Guanine nucleotide-binding protein G(i) subunit alpha-3 (Rattus norvegicus), P08753; percent of control (FP), % (concentration not given with the values);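 active = replicate mean at 85% of control or lower, very high polarization wells dropped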;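 note: wells of about 15 µL received 100 nL stock; the first replicate is given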
Target sequence (P08753 whole entry, looked up): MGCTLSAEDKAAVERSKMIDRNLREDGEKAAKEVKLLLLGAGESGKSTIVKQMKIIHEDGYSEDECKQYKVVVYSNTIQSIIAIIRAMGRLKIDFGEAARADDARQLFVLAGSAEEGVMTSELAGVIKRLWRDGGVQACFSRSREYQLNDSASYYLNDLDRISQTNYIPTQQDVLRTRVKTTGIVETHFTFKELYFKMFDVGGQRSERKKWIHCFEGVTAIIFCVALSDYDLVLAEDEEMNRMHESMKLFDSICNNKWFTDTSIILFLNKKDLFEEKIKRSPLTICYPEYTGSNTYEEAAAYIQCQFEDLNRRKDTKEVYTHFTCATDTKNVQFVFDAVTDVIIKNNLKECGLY
Sa growth inh: S. aureus growth inhibition at 42 and 30 °C, primary screen, LtaS inhibitor project, RN4220, two temperatures; OD600, 20 h, 42 °C; active compounds read low; relative growth, % (test concentration not listed); 0.53% of 170,000 active; AID 720641, 2013;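 active = growth at 42 °C up to 50% and 20 or more points under that at 30 °C, or under 10% at both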;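 note: 300 nL library stock went into each well; scaled to the means of positive and negative controls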
Sa growth inh second temp: further read-out of Sa growth inh, marked with its call; relative growth, %; measured here: growth at 30 °C;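 optical density after 20 h as mean of two plates; 100% = untreated growth and lower means inhibition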
Numbers without * were called inactive; . = no result given; & = joins results of further samples.

SMILES	HCMV UL50-53 inh	GIV-Gai inh	Sa growth inh	Sa growth inh second temp
O=C(/C=C/c1ccccc1Cl)Nn1cnc2ccccc2c1=O	.	101	94	89
COc1ccccc1Nc1cc(C)nc2nc(-c3ccccc3)nn12	.	103	73	57
CC(C)(C)C1CCc2c(sc(NC(=O)c3ccccc3F)c2C(=O)NCc2ccco2)C1 (stereo unspecified)	3	103	99	94
CC(O)c1cccc(Nc2ncnc3c2cnn3C)c1 (stereo unspecified)	-14	102	87	77
O=C(c1ccc(-c2ccccc2F)o1)N(CC1CCCO1)C1CCS(=O)(=O)C1 (stereo unspecified)	-36	.	87	82
Cn1ccnc1SCC(=O)Nc1nncs1	-41	99	103	86
O=C(O)c1ccc2nc[nH]c2c1	-6	.	89	94
Cc1cc(NC(=O)C(C)c2c(C)n[nH]c2C)no1 (stereo unspecified)	-33	106	95	77
CCOc1ccccc1/C=C/c1onc(C)c1S(=O)(=O)N1CCC(C(=O)N(CC)CC)CC1	.	104	115	92
COc1ccc(OC)c(NC(=O)c2cn3c4c(ccc(Cl)c4c2=O)OC(C)C3)c1 (stereo unspecified)	.	103	112	97
CCNc1nc(NCC)nc(Oc2ccc(C(=O)OCC)cc2)n1	-23	106	.	.
CCc1nnc2c(NCCCOC)nc3ccccc3n12	1	106	.	.
O=C(Cc1ccccc1)NCc1nc(-c2ccccc2)no1	.	106	100	99
CCN(c1ccccc1)S(=O)(=O)c1ccc2c(c1)CC(C)N2C(=O)C1CC1 (stereo unspecified)	-12	106	85	80
O=C(c1cc(-c2ccc(Cl)cc2)on1)N(Cc1cccc(F)c1)Cc1ccco1	-2	101	101	81
COCCn1c(N)c(NCc2ccccc2)c(=O)n(CC(=O)Nc2cc(C)ccc2C)c1=O	-7	.	98	85
Nc1c(C(=O)Nc2ccccc2)c2nc3ccccc3nc2n1CCCN1CCOCC1	-34	105	24	-1
COc1ccc(Cn2c(=O)c3oc4ccccc4c3n(Cc3cccc(C)c3)c2=O)cc1	.	96	100	89
O=c1[nH]c2cc(-c3noc(C4CCC4)n3)ccc2n1C1CCCC1	-28	101	.	.
O=C(CSc1ccccc1)NCCc1ccccc1	-8	97	107	83
N#CC1=C(N)C(C#N)(C#N)C(c2ccccc2)C2CNCC=C12 (stereo unspecified)	-19	.	102	77
COc1cc(NC(=O)NCCn2c(C(F)(F)F)nc3cccnc32)cc(OC)c1	-12	110	.	.
CNc1c(NC(=O)c2ccco2)c(=O)oc2ccccc12	-10	103	100	90
COc1ccccc1C(=O)Nc1c(C(=O)Nc2ccccc2F)oc2ccccc12	6	105	93	74
CCOC(=O)C1=C(C)N=c2s/c(=C\c3ccc(OC)c(O)c3)c(=O)n2C1c1ccc(OC)c(OCC)c1 (stereo unspecified)	-5	104	.	.
Cc1cccc(NC(=O)c2c(NC(=O)c3ccco3)sc3c2CCC(C)C3)c1 (stereo unspecified)	-17	99	108	94
CC(CNC(=O)CCc1nnc2n(Cc3ccccc3)c(=O)c3ccccc3n12)c1ccccc1 (stereo unspecified)	.	100	81	81
COC(=O)c1ccccc1NC(=O)CSc1nc2ccsc2c(=O)n1-c1ccc(C)c(C)c1	.	105	102	97
O=c1nc(N2CCOCC2)ccn1Cc1ccc(Cl)cc1	.	98	94	90
O=C(Nc1ccc(Br)cc1)N1CCN(Cc2nc3cccnc3n2-c2ccccc2)CC1	-21	104	.	.
O=C(CC1NCCNC1=O)Nc1cccc(F)c1 (stereo unspecified)	-3	106	103	92
COc1ccccc1Nc1c2c(nc3ccc(NC(=O)c4cccc(F)c4)cc13)CCCC2	-13	108	70	56
CC(=O)Nc1cc(C(=O)NCCN2CCN(c3ccccc3)CC2)ccc1S(=O)(=O)c1ccc(C)cc1	-6	109	118	93
O=C(O)/C=C/c1cccs1	-65	.	100	85
CCOc1ccccc1NC(=O)C1CCN(S(=O)(=O)c2ccc(Br)cc2)CC1	.	106	101	92
COc1ccc(N2C(=O)CC(Sc3nc(C)c4ccc(C)cc4n3)C2=O)cc1 (stereo unspecified)	-4	101	.	.
O=c1[nH]cc(NC2CCCCC2)c(=O)[nH]1	-9	104	110	87
c1csc(CNC2CC2)c1	-5	101	102	90
CCOc1ccc(NS(=O)(=O)c2ccc3[nH]cc(C(=O)NCc4ccccc4)c(=O)c3c2)cc1	-4	104	108	83
CC(=NCCN1CCN(C(=O)c2ccccc2)CC1)c1c(C)[nH]n(-c2nc3ccccc3s2)c1=O	-23	99	122	88
CSc1cccc(NC(=O)N2CCN(S(=O)(=O)c3ccc4c(ccn4C)c3)CC2)c1	.	101	97	89
O=C(NCCc1ccccc1)c1cc(-c2ccc(Br)cc2)on1	-8	106	97	94
O=S(=O)(c1ccc(F)cc1)N1CCC(Oc2cccc(C(F)(F)F)c2)CC1	-18	99	85	88
CCOc1ccc2nc(N3CCCC(C(=O)NCCCOC)C3)sc2c1 (stereo unspecified)	-35	100	107	89
Cc1ccc(/C=C/c2onc(C)c2S(=O)(=O)N2CCCC(C(=O)Nc3cccc(C)n3)C2)cc1 (stereo unspecified)	-22	105	.	.
COc1ccc(S(=O)(=O)Nc2ccc(S(=O)(=O)N3CCCC3)cc2)cc1C	3	100	144	71
Cc1ccc(C)c(NC(=O)CN2C(=O)C3CC=CCC3C2=O)c1 (stereo unspecified)	4	.	92	94
Cc1cncn1CCc1nc2c3ccccc3nc(SCC(=O)Nc3ccccc3F)n2n1	.	104	88	84
COc1cc(-c2nc(SCC(=O)NC3CCCC3)c(-c3ccccc3)[nH]2)cc(OC)c1OC	1	107	121	83
Cc1noc(C)c1S(=O)(=O)NC1Cc2ccccc2C1	-6	100	111	80
CN(C1CCCCC1)S(=O)(=O)c1ccc(CN2C(=O)c3cccnc3C2=O)cc1	-41	102	99	84
CCOc1ccc(C(=O)N2CCN(Cc3cc(=O)n4nc(-c5cccc(OC)c5)sc4n3)CC2)cc1	.	102	75	78
Cc1ccc2nc(N(CCCN(C)C)C(=O)c3ccco3)sc2c1	.	107	116	91
Cc1ccc(CS(=O)(=O)Cc2ccc(C(=O)NCc3ccccn3)o2)cc1	8	104	116	87
CS(=O)(=O)N(CC(=O)NCc1ccccc1)c1cc(C(F)(F)F)ccc1Cl	.	99	101	87
COc1ccc(N2C(=O)/C(=C/c3cc(OC)c(OC)cc3Cl)NC2=S)cc1	-17	100	.	.
Cc1cccc(Nc2nnc(-c3ccc(C)c(S(=O)(=O)N4CCOCC4)c3)c3ccccc23)c1	-28	100	101	99
CCN(CC)C(=O)c1cccc(NC(C)=O)c1	-29	.	79	96
CCN(CC)c1ccc(N=Cc2cc(C)n(-c3ccc(OC(C)=O)cc3)c2C)cc1	-12	.	100	72
N#Cc1nc(/C=C/c2ccc(F)cc2)oc1N1CCN(c2ccccc2)CC1	-27	102	93	87

Given with bars between the fields: entries from further up
Compound | HCMV UL50-53 inh | GIV-Gai inh | Sa growth inh | Sa growth inh second temp
CCOc1ccc(C(=O)N2CCN(Cc3cc(=O)n4nc(-c5cccc(OC)c5)sc4n3)CC2)cc1 | . | 102 | 75 | 78
Cc1ccc2nc(N(CCCN(C)C)C(=O)c3ccco3)sc2c1 | . | 107 | 116 | 91
Cc1ccc(CS(=O)(=O)Cc2ccc(C(=O)NCc3ccccn3)o2)cc1 | 8 | 104 | 116 | 87
CS(=O)(=O)N(CC(=O)NCc1ccccc1)c1cc(C(F)(F)F)ccc1Cl | . | 99 | 101 | 87
COc1ccc(N2C(=O)/C(=C/c3cc(OC)c(OC)cc3Cl)NC2=S)cc1 | -17 | 100 | . | .

Following part:
SMILES	HCMV UL50-53 inh	GIV-Gai inh	Sa growth inh	Sa growth inh second temp
COC(=O)n1c(SC)nc2ccccc21	0	.	81	88
CCc1nnc2n1Nc1nc3ccccc3nc1S2	-19	97	98	83
CN1/C(=C\C=N\O)C(C)(C)c2ccccc21	-1	.	110	75
O=S(=O)(c1ccc2c(c1)CCO2)N1CCCN(c2nccc(C(F)(F)F)n2)CC1	-13	108	96	93
Cc1ccccc1C(=O)Nc1sc2c(c1C(=O)N1CCC(C)CC1)CCC(C)C2 (stereo unspecified)	3	111	94	94
C=CCc1c(O)nc2n(c1=O)CCCS2	-13	99	83	88
CCOc1ccccc1Cn1c(=O)c2sccc2n2c(=S)[nH]nc12	-2	106	.	.
Cc1ccc2c(c1)sc1nc(-c3cc4cc(Cl)ccc4oc3=O)cn12	.	104	98	89
COc1ccc(NC(=O)Cc2csc(COc3cccc(C)c3)n2)c(OC)c1	-37	99	98	83
CCOC(=O)c1sc(NC(=O)CSc2ncccn2)nc1C	-6	105	101	100
O=C(Nc1cc(Cl)ccc1O)c1cc(-c2ccc3c(c2)OCO3)on1	6	101	98	87
Cc1c(C(=O)NCCC(C)C)oc2ccc(Br)cc12	-17	.	88	96
O=C(O)c1ccc(Br)o1	.	114	108	99
CC(C)CCNC(=O)c1cccc(S(=O)(=O)NCc2ccccc2)c1	-18	.	97	89
NC1=NC(=Nc2cccc(C(F)(F)F)c2)c2ccccc21	.	106	96	95
Cc1cc(C(=O)CSc2nncs2)c(C)n1CC(F)(F)F	-21	.	110	88
Cc1ccc(NC(=O)CN2C(=O)S/C(=C/c3ccc4c(c3)n(C)c(=O)n4C)C2=O)cc1C	-10	105	115	93
COC(=O)C1=C(NC(=O)c2ccc(N3C(=O)CCC3=O)cc2)CCS1	-26	108	96	87
C/C(=N\N)c1cc(C(=O)NN)c(=O)[nH]c1C	-10	108	96	89
Cn1c(SCC#N)nnc1-c1ccccc1	2	102	111	94
CC1C=CCC2C(=O)N(c3cccc(Cl)c3)C(=O)C12 (stereo unspecified)	.	99	82	93
c1coc(CNC2CCCCCCC2)c1	-4	.	114	81
O=C1C2CC=CCC2C(=O)N1c1cccc2ccccc12 (stereo unspecified)	-6	.	107	71
CCC(C)NS(=O)(=O)c1ccc(N2CCCCS2(=O)=O)cc1 (stereo unspecified)	.	101	114	99
CCc1cc(C(=O)Nc2cnn(Cc3ccccc3C)c2)no1	5	101	106	87
Cn1c(=O)c(=O)n(C)c2cc3c(cc21)nc(C(F)(F)F)n3Cc1ccccc1	6	100	.	.
CC1CCC(C(C)C)C(OC(=O)Cn2nnc3c(cnn3-c3ccccc3)c2=O)C1 (stereo unspecified)	-15	100	100	80
COc1ccc(Oc2cnc3ccccc3n2)cc1	-10	102	.	.
CC(C)NC(=O)c1nn(-c2ccccc2)nc1CO	-19	106	.	.
CCC(=O)Nc1nonc1-c1ccc(C)cc1	-20	102	94	85

Random excerpt: 6 entries already listed, in no set order.
SMILES	HCMV UL50-53 inh	GIV-Gai inh	Sa growth inh	Sa growth inh second temp
CCc1nnc2c(NCCCOC)nc3ccccc3n12	1	106	.	.
COC(=O)C1=C(NC(=O)c2ccc(N3C(=O)CCC3=O)cc2)CCS1	-26	108	96	87
CCN(CC)C(=O)c1cccc(NC(C)=O)c1	-29	.	79	96
O=C(c1cc(-c2ccc(Cl)cc2)on1)N(Cc1cccc(F)c1)Cc1ccco1	-2	101	101	81
Cc1ccccc1C(=O)Nc1sc2c(c1C(=O)N1CCC(C)CC1)CCC(C)C2 (stereo unspecified)	3	111	94	94
COc1cc(-c2nc(SCC(=O)NC3CCCC3)c(-c3ccccc3)[nH]2)cc(OC)c1OC	1	107	121	83

(more compounds)
SMILES	HCMV UL50-53 inh	GIV-Gai inh	Sa growth inh	Sa growth inh second temp
COC(=O)c1ccccc1NC(=O)CSc1nc(C)cc(C)c1C(=O)Nc1ccccc1	-9	100	.	.
CC1(C(=O)NC2CCCCC2)Cc2ccccc2C(=O)N1C1CCCCC1 (stereo unspecified)	20	101&106	94	87
COc1ccccc1NC(=O)C1=C(C)Nc2nc(SCc3ccccc3Cl)nn2C1c1ccncc1 (stereo unspecified)	1	99	110	91
O=C(NCC(c1ccco1)S(=O)(=O)c1ccccc1)Oc1ccccc1 (stereo unspecified)	-38	99	80	76
CCOC(=O)C1=C(C)N=c2s/c(=C/c3ccc(OC(C)=O)cc3)c(=O)n2C1c1ccc(OC(C)=O)c(OC)c1 (stereo unspecified)	-10	91	.	.
CCOc1ccccc1C=Nc1ccc(S(=O)(=O)N2CCc3ccccc32)cc1	-18	.	86	90
Cc1ccc(N(Cc2nc3nc(C)cc(C)n3n2)C(=O)C(C)C)cc1	-28	98	.	.
COc1cc(OC)c(Nc2c3c(nc4ncnn24)CCC3)cc1Cl	-9	104	.	.
c1ccc2c(-c3nnc4n3CCCCC4)c[nH]c2c1	2	.	92	89
Cc1ccccc1NC(=O)Cn1c(C(F)(F)F)nc2ccccc21	-13	99	.	.
CN1c2ccccc2C(=O)NC1C1CC=CCC1 (stereo unspecified)	-16	104	83	60
CCOC(=O)Cc1cc(=O)[nH]c(=O)[nH]1	-8	102	101	91
O=C(Sc1ccccc1)c1ccc2ncsc2c1	-10	103	103	78
CNC(=O)C12N=CNN=C1N(C)C(=O)N2C (stereo unspecified)	-26	98	89	84
NNC(=O)c1ccc(OCC(O)CO)cc1O (stereo unspecified)	-20	.	94	84
Cc1ccc(CNC(=O)C2CCN(C(=O)N3CCOc4ccc(Cl)cc43)CC2)cc1	10	106	.	.

Rows are unselected. About 0.83% of those tested had a hit in this group.
